PKD1 inh – inhibitors of human PKD1 kinase, biochemical, fluorescence polarization | Serine/threonine-protein kinase D1 (Homo sapiens), Q15139 | PKD1 kinase fluorescence polarization assay | inhibition, %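 (about 10 µM by stock and volumes)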 | 0.056% of 200,000 active | AID 797, 2007;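 active = inhibition of 50% or more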;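 note: controls were vehicle for no effect and a reference inhibitor for full effect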
RGS16-Gao HTS – modulators of RGS16 binding to Galphao, primary screen, biochemical, human proteins, multiplexed bead flow cytometry | Regulator of G-protein signaling 16 (Homo sapiens) + Guanine nucleotide-binding protein … | bead-based flow cytometry RGS16-Galphao binding, fluorescence; actives lie on both sides | binding response (% of control), % at 10 µM | 0.38% of 220,000 active;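 active = below 25% or above 175%, edge rows of some plates excepted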;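 note: Galphao activated by GDP with aluminum fluoride before binding; 100% = wells without compound and 0% = beads without RGS; some results beyond the cut were filed as inactive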
Target sequence (O15492 whole entry, looked up): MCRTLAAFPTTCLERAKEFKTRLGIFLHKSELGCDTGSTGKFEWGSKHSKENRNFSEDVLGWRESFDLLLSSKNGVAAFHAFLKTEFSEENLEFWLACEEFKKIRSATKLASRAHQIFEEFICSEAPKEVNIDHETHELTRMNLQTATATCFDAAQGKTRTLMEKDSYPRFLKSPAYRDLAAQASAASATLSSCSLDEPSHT
Target sequence (P09471 whole entry, looked up): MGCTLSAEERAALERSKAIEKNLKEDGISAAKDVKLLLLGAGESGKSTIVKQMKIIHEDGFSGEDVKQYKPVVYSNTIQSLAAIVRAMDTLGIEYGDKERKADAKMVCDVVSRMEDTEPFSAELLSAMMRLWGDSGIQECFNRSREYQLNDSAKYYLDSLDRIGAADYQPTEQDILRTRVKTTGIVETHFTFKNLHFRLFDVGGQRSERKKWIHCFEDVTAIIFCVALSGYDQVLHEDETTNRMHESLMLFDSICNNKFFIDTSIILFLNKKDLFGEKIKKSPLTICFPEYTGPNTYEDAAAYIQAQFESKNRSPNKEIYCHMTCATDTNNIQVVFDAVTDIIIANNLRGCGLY
Insulin prom inh – inhibitors of insulin promoter-driven GFP, primary screen, imaging, TRM-6 cells (human fetal islet line), eGFP reporter, cell count. reporter expression induced with tamoxifen. inhibition, % at 2 µM. 0.9% of 130,000 active;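 active = inhibition above the mean plus 3 SD, with well images judged a real hit on visual review, cut at about 60% in these data, passing the limit was not always enough; inconclusive = inhibition over the cutoff but images rejected on review; inactive = inhibition not above the cutoff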
GALR2 agonist – GALR2 receptor agonists, primary screen, cell-based; Galanin receptor type 2 (Homo sapiens), O43603; GALR2-expressing cells, agonist activation read-out; activation, %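 (tested at 5 µM)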; 0.48% of 140,000 active;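 active = above mean plus 3 SD of all compounds, about 5% in these data, not always enough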;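 note: 0% = vehicle buffer wells and 100% = reference agonist at full effect; tested in CHO reporter cells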
Target sequence (O43603 whole entry, looked up): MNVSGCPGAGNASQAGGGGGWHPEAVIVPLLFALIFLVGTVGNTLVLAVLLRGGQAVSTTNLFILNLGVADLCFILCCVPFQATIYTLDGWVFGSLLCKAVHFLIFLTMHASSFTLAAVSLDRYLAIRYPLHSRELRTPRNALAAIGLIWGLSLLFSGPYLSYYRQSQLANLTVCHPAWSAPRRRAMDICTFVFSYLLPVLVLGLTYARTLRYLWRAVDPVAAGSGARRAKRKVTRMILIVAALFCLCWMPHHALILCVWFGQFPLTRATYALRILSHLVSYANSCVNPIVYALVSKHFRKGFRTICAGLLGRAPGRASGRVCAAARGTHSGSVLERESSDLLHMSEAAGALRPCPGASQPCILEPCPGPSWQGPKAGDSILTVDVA
HSV augment – enhancers of HSV replication in host cells, fold increase, host cell viability | HSV replication augmentation in cells | maximum fold increase | 0.005% of 220,000 active;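 active = peak rise of 1.5-fold or more in the series; inconclusive = self-fluorescent or not available for retest; tested in PC3 cells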;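 note: first round at 10 µM; read as green reporter fluorescence; hits show the peak of a series up to 25 µM; 1 = signal of infected wells without compound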
Insulin prom inh cell count – also measured in Insulin prom inh; calls as there; normalized cell count, %; measured here: cell count, toxicity; reference of the scale not given here;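 cells exposed to compound for 48 h; stained nuclei by imaging scaled within each plate; lower means fewer cells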
HSV augment primary fold – also measured in HSV augment; calls as there; fold increase; compound at 10 µM; measured here: primary screen fold increase 10 uM; tested in PC3 cells;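 GFP signal in the first replicate; 1 = infected wells without compound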
* = called active by the depositor; i = inactive; ? = inconclusive; / = not tested or not shown; & = joins results of further samples.

Compound	PKD1 inh	RGS16-Gao HTS	Insulin prom inh	Insulin prom inh cell count	GALR2 agonist	HSV augment	HSV augment primary fold
O=C(Cn1cnc2c(nnn2Cc2ccccc2F)c1=O)NCC1CCCO1 (configuration not stated)	-5	42	-44	85	-2.4	i	0.84
Cc1cccc(NC(=O)c2cc(NC(=O)C3CC=CCC3C(=O)O)ccc2N2CCOCC2)c1 (configuration not stated)	0	99	-172	94	-0.1	i	0.86
CSC1=C(C#N)C(c2ccncc2)C(C(=O)Nc2ccccc2)=C(C)N1 (configuration not stated)	5	100	0	126	/	i	1.1
C=CCNC(=O)CC1C(=O)NCCN1Cc1c(F)cccc1Cl (configuration not stated)	-6	104	-4	76	/	i	0.98
CCCCN(CC)Cc1ccc(CNC(=S)Nc2cccc(F)c2)o1	-8	100	/	/	/	i	0.9
COc1ccc(-c2nc(CN(C)C(C)c3ccon3)c(C)o2)c(C)c1C (configuration not stated)	-10	109	/	/	/	i	1
CCc1ccc(C(=O)CN2C(=O)NC(C)(CCc3ccccc3)C2=O)cc1 (configuration not stated)	4	99	-78	186	-1.2	i	0.93
O=C(/C=C/c1ccccc1)Nc1ccc(C(=O)N2CCCCC2)cc1	-6	103	/	/	/	i	0.95
COc1ccc(CN(C)Cc2nc3cc(OC)c(OC)cc3c(=O)[nH]2)c(OC)c1	-2	102	/	/	/	i	0.82
Cc1cc(NC(=S)NC(=O)C2CC2)ccc1Br	7	103	/	/	1.2	i	1
CC1CCC/C(=N/Nc2nc3ccccc3s2)C1 (configuration not stated)	9	100	/	/	/	i	1.1
Cc1ccc(NC(=O)CC2NCCNC2=O)cc1Cl (configuration not stated)	0	109	5	95	/	i	0.9
Cc1nn(CCOc2ccccc2)c(=O)n1-c1ccc(F)cc1	-2	99	33	76	-0.9	i	0.97
COc1ccc(C(=O)CN2C(=O)c3ccccc3S2(=O)=O)cc1	/	98	/	/	/	i	0.99
Cc1noc(C)c1CSc1nnc(-c2ccccc2)n1Cc1ccco1	-9	102	3	71	-1.4	i	0.96
O=C(NNC1CC(=O)N(c2ccccc2)C1=O)c1ccc(COc2ccccc2Cl)o1 (configuration not stated)	-1	79	/	/	-0.7	i	0.86
Cc1cc(Br)ccc1OCc1nc(-c2cccnc2)no1	-9	91	-75	37	0.2	i	0.95
CCOC(=O)c1c(NC(=O)CSc2nncs2)sc(C)c1C	5	98	3	95	-1.3	i	0.77
COc1cc(C(=O)Nc2ccc3c(c2)OCO3)ccc1-n1cnnn1	2	108	/	/	-0.5	i	0.89
CCCCN(C)C(=O)CCCCn1c(=O)[nH]c2cc(OCC)c(OCC)cc2c1=O	2	99	/	/	-2.6	i	0.92
CCOC(=O)c1sc(-c2ccccc2)cc1NC(=O)c1ccc(S(=O)(=O)N(CCOC)CCOC)cc1	5	106	/	/	-0.5	i	0.95
Clc1ccc(-c2cc3ccccc3nc2N2CCCC2)cc1	-5	114	-38	158	-1.5	i	0.97
NC(=O)CC(NC(=O)c1ccccc1)c1ccc(NCc2ccc(F)cc2)c([N+](=O)[O-])c1 (configuration not stated)	/	96	/	/	/	i	0.81
CCCCCC(=O)Nc1ccc(S(=O)(=O)Nc2ccc(Cl)nn2)cc1	0	106	/	/	-0.8	/	/
Cc1ccccc1NC1=C(C(=O)c2ccccc2)N(C)S(=O)(=O)c2ccccc21	14	94	/	/	-2.7	?	/
CC(C)(C)CC(C)(C)NCC(O)COc1ccc2c(c1)CCC2 (configuration not stated)	10	/	-41	95	1.9	i	0.8
COc1ccccc1NC(=O)CSc1nc2ccccc2c(=O)n1CCNC(C)=O	0	108	/	/	-0.6	i	0.96
COc1cc2cc(CN(CCN3CCCC3)C(=O)Nc3ccccc3Cl)c(=O)[nH]c2cc1OC	7	94	-7	119	-2.0	/	/
Cc1ccc2c(c1)c1c3n2CCCNC3CCC1 (configuration not stated)	-2	169	/	/	-1.0	i	0.82
CCCCC(=O)NCCNC(=O)c1cc(OCC(F)(F)F)ccc1OCC(F)(F)F	-4	103	-46	128	-1.0	i	0.92
CC(C)(C)n1nc2c(c1NC(=O)Cc1ccccc1)CS(=O)(=O)C2	-6	58	56	53	/	i	0.89
COc1ccc(NC(=O)CCN2C(=O)[C@@H]3[C@H](C2=O)[C@H]2C=C[C@@H]3C2)cc1	/	98	/	/	/	i	0.88
CCCC[N+](CC#Cc1ccccc1)(CCCC)CCCS(=O)(=O)[O-]	-1	106	19	110	/	i	0.93
COc1ccc(OC)c(S(=O)(=O)Nc2cccnc2)c1	-2	98	-23	115	-1.1	i	0.87
O=C(CSc1ncccc1-c1nc2ccccc2[nH]1)Nc1ccc2c(c1)OCCO2	-9	101	17	97	-1.1	i	0.82
Fc1ccc(-n2nnc(-c3ccnc4ccccc34)n2)cc1	-8	91	/	/	/	i	1
CN1CCN(/N=C/c2ccc(Br)cc2)CC1	-2	100	/	/	/	i	1
Cc1cccc(N2CCN(C(=O)c3ccoc3C)CC2)c1C	-2	114	14	151	-0.2	i	0.95
COc1c(/C=N/Nc2nc(N3CCCCC3)nc(N3CCCCC3)n2)cccc1[N+](=O)[O-]	-2	107	17	77	-0.4	/	/
Cc1ccc(-c2csc(NC(=S)NC(=O)c3cc4ccccc4o3)n2)cc1	-14	299	0	59	-1.2	i	1.1
COc1cc(C(=O)NNC(=S)NC(=O)c2ccccc2C)cc(OC)c1OC	-6	109	/	/	-1.2	i	0.76
CCOC(=O)Cc1csc(SCc2cc(=O)oc3cc(O)ccc23)n1	-1	105	-38	110	-0.5	i	1.1
COc1ccc(C(=O)Sc2nncc3ccccc23)cc1	-2	99	0	145	/	i	0.92
O=C(Oc1cccnc1)c1cc(S(=O)(=O)N2CCOCC2)ccc1Cl	-4	103	18	115	-0.7	i	1.1
CN1CCn2c1nc(N1CCCCC1)nc2=O	-8	109	-9	102	0.6	i	1.4
O=C1CCCN1CN1CCCCC1	0	74	/	/	-2.5	i	0.87
Cc1ccc(OCC(=O)N/N=C\c2ccc(C)o2)c(C)c1	-7	101	/	/	/	i	0.81
O=C(c1ccc(F)cc1)N1CCN(c2ncccn2)CC1	3	100	-46	106	0.4	i	0.92
Nc1nnc(-c2cccc(Cl)c2Cl)c(N)n1	5	101&94	-23	134	-0.1	i	0.88
COC(=O)c1ccccc1NC(=O)CN(Cc1ccccc1)S(C)(=O)=O	-8	94	-15	92	-0.8	i	0.93
Cc1nn(C)c2nc(-c3cccs3)cc(C(F)(F)F)c12	1	99	17	174	/	i	0.97
CCOC(=O)c1cnc(SCc2ccc(C)cc2)nc1N	-12	99	14	118	-1.6	i	0.91
COCCN1Cc2cccc(C(=O)Nc3ccc(-c4nc5ccccc5[nH]4)cc3)c2C1=O	-5	107	-31	110	1.6	i	0.83
COc1ccc(Br)cc1C(=O)N/N=C/c1ccc2c(c1)n(C)c(=O)n2C	-3	109	-53	87	-0.3	i	0.95
Cc1cc(C)c(S(=O)(=O)N2CCN(c3ccc([N+](=O)[O-])c(NCC4CCCO4)c3)CC2)c(C)c1 (configuration not stated)	4	142	25	104	-0.2	/	/
COc1ccc(NS(=O)(=O)c2ccc(Br)s2)cc1OC	-4	102	-10	71	-0.5	i	1.1
O=C(c1ccc(N2C(=O)C3CC=C(Cl)CC3C2=O)cc1)N1CCOCC1 (configuration not stated)	-4	104	/	/	/	i	0.81
COc1ccc2cc(-c3cc(C(=O)O)c4ccccc4n3)ccc2c1	-2	103	7	74	-2.7	i	0.94
c1ccc(CSc2ccc(-c3cccs3)nn2)nc1	-1	107	-78	86	/	i	0.96
C/C(=N/Nc1ccc(C)cc1)C1(C)N(O)C(C)(C)C(c2ccco2)=[N+]1[O-] (configuration not stated)	1	101	/	/	/	i	0.99

(more compounds)
Compound	PKD1 inh	RGS16-Gao HTS	Insulin prom inh	Insulin prom inh cell count	GALR2 agonist	HSV augment	HSV augment primary fold
Cc1ccc(S(=O)(=O)N2CCC(C(=O)N[C@@H](C)C(=O)NCc3ccco3)CC2)cc1	0	102	-21	100	-0.1	i	1.1
COc1ccc(C2CC(C(F)(F)F)n3nc(C(=O)NCCCn4ccnc4)cc3N2)cc1OC (configuration not stated)	-12	104	/	/	-0.9	i	0.87
Cc1ccc(S(=O)(=O)Nc2ccccc2C(N)=O)cc1	0	101	-403	35	-2.5	i	0.72
COCCN(Cc1cc2cc3c(cc2nc1Cl)OCO3)C(=O)Nc1ccc(OC)cc1	4	138	26	83	-1.8	i	1.2
CN(C)S(=O)(=O)c1cccc(NC(=O)c2ccc(N3CCOCC3)c([N+](=O)[O-])c2)c1	2	108	15	71	-2.1	i	0.93
COc1cc(C(CCN2CCCC2)c2c(OC)cc(OC)c3ccc(=O)oc23)cc(OC)c1OC (configuration not stated)	/	96	/	/	/	i	1
O=C1CC(=O)N(c2cccc(F)c2)N1	-3	103	42	161	/	i	0.9
COc1ccc(/C=N/n2cnnc2)cc1Oc1nc(Cl)ncc1F	0	109	36	84	/	i	0.86
Cc1cccc(N2CCN(c3nc4ccc(Cl)cc4n4cnnc34)CC2)c1C	-5	118	2	117	-0.6	i	0.91
Cc1cc(OCC(=O)NCC(C)C)cc(C)c1Br	-1	103	6	155	-2.3	i	0.93
CN1CCN(C(=O)C2=C[C@@H](c3csc4ccccc34)C[C@@H](OCc3ccc(CO)cc3)O2)CC1	-1	98	/	/	/	i	0.86
Nc1cc(=O)nc(SCC(=O)NC2CCCCC2)n1-c1ccccc1	-2	95	/	/	-1.8	i	0.92

The list goes on, overlapping the part above by 3 compounds.
Compound	PKD1 inh	RGS16-Gao HTS	Insulin prom inh	Insulin prom inh cell count	GALR2 agonist	HSV augment	HSV augment primary fold
Cc1cc(OCC(=O)NCC(C)C)cc(C)c1Br	-1	103	6	155	-2.3	i	0.93
CN1CCN(C(=O)C2=C[C@@H](c3csc4ccccc34)C[C@@H](OCc3ccc(CO)cc3)O2)CC1	-1	98	/	/	/	i	0.86
Nc1cc(=O)nc(SCC(=O)NC2CCCCC2)n1-c1ccccc1	-2	95	/	/	-1.8	i	0.92
O=C(c1ccccc1OCc1ccccc1Br)N1CCN(c2ncccn2)CC1	-4	101	/	/	-0.6	i	0.85
Cc1cccc(N(CC(=O)NC2CCCCC2)C(=O)c2c(C)noc2C)c1	-1	98	17	123	-0.7	i	0.97
Cc1ccc(S(=O)(=O)NC(=O)NCCCCNC(=O)NS(=O)(=O)c2ccc(C)cc2)cc1	-5	116	-23	97	-1.1	i	0.97
COC(=O)C1C2C=CC3(CN(c4cccc(Cl)c4)C(=O)C13)O2 (configuration not stated)	7	101	/	/	-3.1	i	1.4
CCOc1cc(NC(=O)c2ccccc2C)c(OCC)cc1NC(=O)C1=Cc2ccccc2OC1	-2	98	12	71	-4.0	i	0.79
Cc1ccccc1CSCC(=O)NCCSc1ccccn1	3	102	13	82	/	i	0.76
CC1CCC(NC(=O)Cn2cc3c(n2)CCCC3)CC1 (configuration not stated)	-10	99	/	/	-2.9	i	0.74
CC1=C(CCN2CCN(C3CCCC3)C(CCO)C2)C(C)(C)CCC1 (configuration not stated)	1	103	/	/	/	i	0.86
O=C(COC(=O)c1cncc(Br)c1)NCc1ccco1	6	88	/	/	-2.9	i	0.97
CCOC(=O)c1c(-c2ccc(F)cc2)csc1NC(=O)c1c(-c2ccccc2)noc1C	3	101	/	/	0.9	i	0.87
CC(C)(C)c1nnc2sc(SCC(=O)N3CCc4ccccc43)nn2c1=O	-11	101	14	86	/	i	0.75
CC1CCN(CCCNC(=O)c2ccc(Cn3c(=S)[nH]c4ccc(Br)cc4c3=O)cc2)CC1	1	95	/	/	/	i	0.92
C=CCNC(=S)Nc1sc2c(c1C(N)=O)CCCC2	/	87	/	/	/	i	0.97
CCc1ccc(C2NC(c3ccc(CC)cc3)C([N+](=O)[O-])C(C)(C)C2[N+](=O)[O-])cc1 (configuration not stated)	-4	101	/	/	-2.0	i	0.93

Screens (PubChem)
